Vero viability: viability loss in Vero cells – cytotoxicity control for Vif-APOBEC3G degradation inhibitor project, dose response (AID 1117358). Vero viability, CellTiter-Glo ATP luminescence, 72 h; reference of the scale not given here. 7% of 2,300 active. viability, % at the top dose, mostly 40 µM; hits show CC50 in µM;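 active = viability down to 80% or less at some dose; inactive = above 80% at all doses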
Starred values were filed as active, the others as inactive. Only part of the results is shown; the hit share may differ from the screen's.

| Structure | Vero viability |
| --- | --- |
| CC(=O)c1c(O)n(C)c(=S)n(-c2ccccc2)c1=O | 99.7% |
| CCc1ccccc1NC(=O)CSc1nnc([C@@H](N)Cc2c[nH]c3ccccc23)o1 | 100.1% |
| CN1C(=O)/C(=C/c2cccn2-c2ccc3ccccc3c2)C(=O)NC1=S | 84.7% |
| CC(C)Sc1nnc([C@@H](N)Cc2ccccc2)o1 | 99.0% |
| CCC1CCCCN1P(=O)(c1ccc(C)o1)C(C)(C)C (stereo not given) | 100.9% |
| Cc1ccc(-n2nc(C)c(C3C(C#N)=C(N)Oc4c3c(=O)oc3ccccc43)c2Cl)cc1 (stereo not given) | 101.9% |
| Cc1nc2cc(F)ccc2n1C1CCN(Cc2nnnn2CCc2ccccc2)CC1 | 98.5% |
| Oc1ccc(/C=N/NP(=S)(c2ccccc2)c2ccccc2)cc1O | >40µM* |
| O=C(COC(=O)c1cccc(O)c1)Nc1ccc(Cl)cc1C(=O)c1ccccc1 | 90.0% |

Grouped by structure: the entries above containing a halogen (3)
| Structure | Vero viability |
| --- | --- |
| Cc1ccc(-n2nc(C)c(C3C(C#N)=C(N)Oc4c3c(=O)oc3ccccc43)c2Cl)cc1 (stereo not given) | 101.9% |
| Cc1nc2cc(F)ccc2n1C1CCN(Cc2nnnn2CCc2ccccc2)CC1 | 98.5% |
| O=C(COC(=O)c1cccc(O)c1)Nc1ccc(Cl)cc1C(=O)c1ccccc1 | 90.0% |

Bioassay records: PubChem, Southern Research Institute
